KCNQ2 enhance = potentiators of rat KCNQ2 potassium channel; Potassium voltage-gated channel subfamily KQT member 2 (Rattus norvegicus), O88943; 310,000 compounds, 0.54% hits; CHO-K1 KCNQ2, FluxOR thallium flux fluorescence; active compounds read high; B-score at 10 µM;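 active = fluorescence ratio B-score at least 3 SD of library B-scores, with initial fluorescence B-score within 3 SD, cut at about 5.3 in these data; same plate scores as AID 2156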;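 note: B-score of peak minus minimum over baseline fluorescence ratio after K+ and Tl+ stimulus; positive B-score means potentiation of KCNQ2 with more thallium influx and brighter signal; only the inactives scoring about 0 or higher are listed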
Target sequence (O88943 whole entry, looked up): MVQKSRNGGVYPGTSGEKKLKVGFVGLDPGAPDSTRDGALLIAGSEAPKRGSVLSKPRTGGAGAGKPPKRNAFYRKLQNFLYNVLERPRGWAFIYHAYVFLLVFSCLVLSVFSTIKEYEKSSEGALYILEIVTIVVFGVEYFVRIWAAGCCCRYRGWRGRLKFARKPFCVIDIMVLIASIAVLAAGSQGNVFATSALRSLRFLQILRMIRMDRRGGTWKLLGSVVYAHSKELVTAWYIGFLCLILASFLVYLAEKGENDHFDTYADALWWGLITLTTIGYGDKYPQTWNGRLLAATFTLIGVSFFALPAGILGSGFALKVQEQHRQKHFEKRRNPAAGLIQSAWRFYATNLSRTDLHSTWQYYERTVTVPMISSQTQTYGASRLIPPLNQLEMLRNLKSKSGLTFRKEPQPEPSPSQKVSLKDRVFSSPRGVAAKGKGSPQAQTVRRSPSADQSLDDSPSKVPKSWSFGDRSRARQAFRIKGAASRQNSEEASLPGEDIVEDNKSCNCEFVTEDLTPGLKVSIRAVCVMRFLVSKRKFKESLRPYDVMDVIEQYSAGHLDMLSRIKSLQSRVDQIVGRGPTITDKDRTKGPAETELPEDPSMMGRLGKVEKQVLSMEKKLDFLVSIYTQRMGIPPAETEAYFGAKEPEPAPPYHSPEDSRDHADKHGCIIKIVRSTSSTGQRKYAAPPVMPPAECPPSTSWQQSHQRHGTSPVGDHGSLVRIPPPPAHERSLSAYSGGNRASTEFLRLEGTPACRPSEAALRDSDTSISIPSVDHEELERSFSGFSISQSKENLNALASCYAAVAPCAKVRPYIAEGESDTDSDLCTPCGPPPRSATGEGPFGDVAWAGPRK
KCNQ2 enhance baseline = further read-out of KCNQ2 enhance, marked with its call; B-score; compound at 10 µM; measured here: initial fluorescence intensity artifact check;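 brightness before thallium and not channel activity; 0 = typical well and far values either way flag optical interference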
Numbers without * were called inactive.

Values run as follows: KCNQ2 enhance, KCNQ2 enhance baseline
COCC(C)NC(=O)C(C)N1c2cccc3cccc(c23)S1(=O)=O (stereo not given)
→ 1.85, -2.54
CCOc1cccc(C2C(C(=O)c3ccc(C)o3)=C(O)C(=O)N2Cc2ccncc2)c1 (stereo not given)
→ 1.11, -2.23
COc1ccccc1Oc1coc2cc(OC(=O)N3CCOCC3)ccc2c1=O
→ 0.57, -0.64
CN1CCCN(S(=O)(=O)c2ccc3c(c2)OCCO3)CC1
→ 0.53, -2.72
CCN(CC)C(=O)COc1ccc(CC(=O)O)cc1OC
→ 0.46, -1.58
COc1ccc(S(=O)(=O)N2CCCOC2CNC(=O)C(=O)NCc2cccnc2)cc1 (stereo not given)
→ 1.63, -1.77
CCN(CC)C(=O)Oc1cc(=O)n2c3c(cccc13)CCC2
→ 0.58, 2.64
NC(=O)COC(=O)C1c2ccccc2Oc2ccccc21
→ 0.69, -2.76
Cc1cc(C)cc(OCc2nc3ncc(Br)cc3[nH]2)c1
→ 0.44, -0.48
NC(=O)c1ccc(NC(=O)CCCN2C(=O)c3ccccc3C2=O)cc1
→ 0.03, -1.1
Cc1ccc(CCNC(=O)CN(C)S(=O)(=O)c2ccc3c(c2)n(C)c(=O)c(=O)n3C)cc1
→ 2.16, -0.28
Cc1ccc(OC(C)C(=O)N(Cc2cccs2)C2CCS(=O)(=O)C2)cc1C (stereo not given)
→ 1.16, 1.5
O=C1NCC(=O)N(Cc2ccccc2)/C1=C/c1ccccc1
→ 0.21, 1.57
Cc1nc(Cl)sc1C(=O)Nc1cccc(Cl)c1C
→ 0.79, -1.88
CC(=O)O[C@H]1C[C@@]2(O)[C@@H](OC(=O)c3ccccc3)C3[C@@](C)([C@@H](O)C[C@H]4OC[C@@]34OC(C)=O)[C@@H](O)[C@H](OC(C)=O)C(=C1C)C2(C)C (stereo not given in full)
→ 0.1, 0.06
CN(c1ccccc1)c1ccc(/C=C(\CCC(=O)O)c2nc3ccccc3s2)cc1[N+](=O)[O-]
→ 0.81, -3.51
Cc1cc(C)nc(NS(=O)(=O)c2ccc(N/C=C\C(=O)c3cccs3)cc2)n1
→ 1.07, -0.45
COc1ccc(OC)c(S(=O)(=O)N(C)CC(=O)N2CCN(c3cccc(Cl)c3)CC2)c1
→ 0.1, -0.61
O=C(Nc1ccc(N2CCN(C(=O)c3ccc(Cl)cc3)CC2)cc1)c1cccnc1
→ 0.38, 0.69
O=c1ccc2ccccc2n1Cc1cccc(F)c1
→ 0.2, -0.86
CCc1nc(SCC(=O)c2cccs2)c2oc3ccccc3c2n1
→ 4.48, 0.37
Cc1cc2ccccn2c1C(=O)c1ccc(NN)c([N+](=O)[O-])c1
→ 1.21, -1.37
Cn1ccc(C(=O)Nc2cccnc2Cl)n1
→ 1.31, 0.53
Cc1ccc(NCC(=O)N/N=C/c2cccc(Br)c2)cc1
→ 0.39, -1.46
Cc1cc(N(C)C)nc(SC(C)C)n1
→ 0.46, 1.03
CCc1ccc(OC2=NS(=O)(=O)c3ccccc32)cc1
→ 0.03, 0.21
CCOc1cc(C)c(C(C)C)cc1S(=O)(=O)N1CC(C)OC(C)C1 (stereo not given)
→ 0.1, -1.11
CCOc1ccc(-c2cn[nH]c2N)cc1
→ 0.33, 0.57
COc1ccc(NC(=O)CN2CCN(S(=O)(=O)N3CCCCCC3)CC2)cc1
→ 0.87, 0.91
COc1ccc(C)cc1-n1nnnc1SCc1cc(=O)n2cc(C)ccc2n1
→ 0.78, 1.79
COc1c2ccoc2c(OC[C@@H](O)C(C)(C)OC)c2oc(=O)ccc12
→ 0.12, 0.45
COc1cccc(C(=O)C2CCCN(Cc3ccc(OC)c(Cn4cncn4)c3)C2)c1 (stereo not given)
→ 2.73, 0.74
Cc1c(-n2c(SCC(=O)O)nnc2-c2ccccc2Br)c(=O)n(-c2ccccc2)n1C
→ 1.37, -0.22
CCc1cc(-c2n[nH]c(=S)n2CC(C)C)cs1
→ 3.16, -0.96
COc1cc(CNCc2ccccn2)ccc1OCC(=O)NC1CCCCC1
→ 0.18, -0.82
CC#CC[N+](C)(CC#CC)CC(=O)c1ccccc1
→ 0.26, 0.98
Cn1cnc2c(=O)sc3ccccc3c21
→ 1.04, 2.13
COc1ccc(C=NCC2OCCc3ccccc32)cc1OC (stereo not given)
→ 1.33, 1.09
COc1cccc(NC(=O)N2CCCC2C(=O)NC2CCCC2)c1 (stereo not given)
→ 0.17, -0.04
CC1(NC(=S)N(CCO)CCO)CCS(=O)(=O)C1 (stereo not given)
→ 0.54, 3.02
CCc1nn(CC(=O)N2CCN(c3cc(C)ccc3C)CC2)c(=O)c2cc3occc3n12
→ 0.5, 0.61
CCOc1ccc2[nH]c3c(NCCc4ccc(OC)c(OC)c4)ncnc3c2c1
→ 0.53, -2.89
CN=C1S/C(=C\c2ccc(O)c(OC)c2)C(=O)N1C
→ 1.03, 1.24
COc1ccc(Cc2nnc(NC(=O)Nc3ccccc3F)s2)cc1
→ 0.96, 0.74
C/C(=N/NC(=O)CNC(=O)C1COc2ccccc2O1)c1ccc([N+](=O)[O-])cc1 (stereo not given)
→ 1.17, -2.13
CCOCCc1c(O)nc(SCC)[nH]c1=O
→ 0.36, -0.14
O=C(O)CCCCCn1c(SCc2cc(=O)n3ccccc3n2)nc2ccsc2c1=O
→ 0.9, 0.45
Cc1cc(/C=C(\C#N)C(=O)NCc2ccccc2)cc(C)c1O
→ 0.74, 0.39
N#CC1=C(N)C(C#N)(C#N)C2(CCC3(CC2)OCCO3)C2CC3(CC=C12)OCCO3 (stereo not given)
→ 0.32, 1.11
Cc1ccc(-c2nc3ccccc3s2)cc1S(=O)(=O)N1CCOCC1
→ 1.33, 0.26
Cc1cc2c(cc1C)CSC(c1c(O)ccc3ccccc13)SC2
→ 1.05, 0.02
CCc1cccc(NC(=O)Nc2ccc3c(c2)OCO3)c1
→ 1.82, -2.28
COc1ccc(-c2ccnc(SCC(=O)c3ccc(OC)c(OC)c3)n2)cc1
→ 1.47, 0.06
COCCNS(=O)(=O)c1cc(F)ccc1OC
→ 0.41, 0.39
N#CC1=C2SCN(Cc3ccco3)CN2C(=O)CC1c1ccc(Cl)cc1 (stereo not given)
→ 0.71, 0.96
CCn1c(SCC(=O)Nc2nnc(C)s2)nnc1-c1ccncc1
→ 1.19, 1.14
COC(=O)c1ccccc1NC(=O)CSc1nc2c(c(=O)[nH]1)CCC2
→ 0.62, 1.5
O=C(O)c1ccc(C(=O)Nc2cccc(NC(=O)C3CCCO3)c2)cc1 (stereo not given)
→ 0.59, -1.61
O=C(O)CCCC(=O)N1CCOCCOCCOCCOCC1
→ 0.03, -0.31
Cc1ccc(CN2CCN(/N=C/c3ccc(C(=O)O)cc3)CC2)cc1
→ 0.42, -0.7

(cont.)
Values run as follows: KCNQ2 enhance, KCNQ2 enhance baseline
CCOC(=O)c1cc(-c2csc(-c3ccc(C(C)(C)C)cc3)n2)on1
→ 2.18, -0.86
COc1ccc(OC)c(S(=O)(=O)N2CCCC(C(=O)NCc3ccccn3)C2)c1 (stereo not given)
→ 1.01, -0.22
CCC(c1nc2ccccc2c(=O)n1-c1nc2ccccc2s1)N1C(=O)c2ccccc2C1=O (stereo not given)
→ 0.39, 0.29
O=C(COc1ccc2ccccc2c1)NC1=NCCS1
→ 0.33, 0.06
O=C(CSc1nc2ccccc2c(=O)[nH]1)N1CCOCC1
→ 0.71, 1.12
CN(C)S(=O)(=O)c1ccc(C(=O)NCC[N+]2(C)CCCCCC2)o1
→ 1.32, 1.19
CC(C)C1NC(=S)N(C2CCCCC2)C1=O (stereo not given)
→ 0.63, 0.92
CCN1CCN(C(=S)c2ccc(OCC(=O)N3CCOCC3)cc2)CC1
→ 0.06, 1.27
COc1ccc(-c2nc(-c3ccccn3)no2)cc1
→ 0.02, -1.49
CC1C2CC(C(CN(C)C)/C2=N/O)C1(C)C (stereo not given)
→ 1.14, -0.89
COc1cccc(C(=O)c2c[nH]c(C(=O)NCc3cccs3)c2)c1
→ 0.24, -0.36
COc1ccc(-c2cc(C(=O)N3CCC3)c3ccccc3n2)cc1OC
→ 1.16, 1.01
O=C(O)c1[nH]c2ccc(Cl)cc2c1CCN1C(=O)c2ccccc2C1=O
→ 0.26, 1.21
O=C(Nc1nc2ccsc2c(=O)s1)c1ccco1
→ 2.55, -1.95
Cn1c(Cc2ccc(Cl)cc2)nnc1SCC(=O)NC1CC1
→ 1.71, 1.72
Cc1ccc(-c2cc(-c3ccccc3Cl)[nH]n2)c(O)c1
→ 1.21, -2.86
Cc1nnsc1C(=O)NC(=O)Nc1ccc(F)c(Cl)c1
→ 1.13, 0.75
CN(C)c1ccc(P(=O)(OC2CCCCC2)C(Nc2ccccc2)c2cccnc2)cc1 (stereo not given)
→ 0.01, -1.27
N/C(=N\OS(=O)(=O)c1ccccc1)c1ccccn1
→ 0.02, 0.09
O=C(OCC(=O)N1CCCc2ccccc21)c1ccccc1NCCO
→ 1.74, 0.72
CC(NC(=O)c1cc([N+](=O)[O-])cc([N+](=O)[O-])c1)c1ccc(-n2ccnc2)cc1 (stereo not given)
→ 2.39, -0.37
O=C(CSc1nc(-c2cccs2)cc(C(F)(F)F)n1)NCCCN1CCOCC1
→ 0.84, 1.54
CC(=O)Nc1cccc(C(=O)N2CCC(n3nccc3NC(=O)CC(C)C)CC2)c1
→ 0.59, -1.87
Cc1onc(-c2ccccc2Cl)c1C(=O)Nc1sc2c(c1C(N)=O)CCC(C)C2 (stereo not given)
→ 2.69, -1.36
COCCn1c(=O)c2c(nc3n2CC(C)CN3Cc2ccccc2)n(C)c1=O (stereo not given)
→ 0.53, -0.01
COc1ccc(CC(NC(C)=O)C(=O)NC2CCN(C(=O)C3CCCCC3)CC2)c(OC)c1 (stereo not given)
→ 0.88, -0.74
CCOc1ccc2nc(N3CCC(C(=O)NC4CCCCC4)CC3)sc2c1
→ 1.24, 0.96
COc1cc(C(=O)NCc2nnc(SCC(=O)N3CCCCCC3)o2)cc(OC)c1OC
→ 0.15, -0.4
CN(C)/C=c1\sc2c(C#N)cc(C(=O)c3ccc(Br)cc3)n2c1=O
→ 0.87, 3.92
CCCCn1nnnc1NCc1cc(Cl)c(OC)c(OC)c1
→ 0.47, -0.02
CCOC(=O)C1=C(C)Nc2nc(C)nn2C1c1cc(OC)ccc1OC (stereo not given)
→ 0.64, -0.15
CCOC(=O)CSc1nc(-c2ccccc2)nc2ccccc12
→ 0.5, -1.13
Cn1c(CNc2nc(-c3ccccc3)cs2)nnc1SCC(=O)OC1CCCCC1
→ 0.05, 0.64
CCc1ccccc1NC(=O)CCCSc1nc2ccccc2s1
→ 2.71, -0.15
COc1ccc(C(=O)Nc2ccc3nc4n(c(=O)c3c2)CCCC4)cc1[N+](=O)[O-]
→ 0.7, -0.86
O=C(NCCOc1ccccc1F)Nc1ccc(Br)cc1
→ 1.28, 0.01
CC1(C)CC(=O)C(N=Nc2cccc([N+](=O)[O-])c2)=C(O)C1
→ 0.12, -1.11
COC(=O)c1nn(-c2ccc(OC)cc2)c(=O)cc1O
→ 1.4, 1.03
COc1ccccc1-c1noc(CCCC(=O)NC2CCCCC2)n1
→ 0.45, 1.58
CNS(=O)(=O)c1cccc2cccnc12
→ 0.49, -0.38
CSc1nc2nc(C(F)(F)F)cc(-c3ccccc3)n2n1
→ 0.02, 2.22
COc1ccc(C2(O)CCN(C(=O)NC3CCCCC3)CC2)cc1
→ 0.68, 1.57
O=C(NCCCN1CCOCC1)C1CC(=O)N(c2ccccc2)C1 (stereo not given)
→ 0.06, -1.8
CCN1C(=O)CSc2ccc(C(=O)NCCCN3CCOCC3)cc21
→ 0.77, 0.49
O=C(Cc1ccc(Br)cc1)Nc1cccc(-c2cn3c(n2)SCC3)c1
→ 0.28, 0.32
O=C(NCc1ccc(N2CCCC2=O)cc1)C1CCC(=O)N(Cc2ccccc2F)C1 (stereo not given)
→ 0.39, 0.43
O=C(NNC(=O)c1ccccc1Cl)c1csc(N2CCOCC2)n1
→ 0.04, -1.4
CCOC(=O)C1CN(S(=O)(=O)c2ccccc2)c2cc(S(=O)(=O)CC)ccc2O1 (stereo not given)
→ 0.2, 0.05
COC(=O)c1c(NC(=O)/C=C/C(=O)O)sc(C)c1-c1ccc(C)c(C)c1
→ 1.93, 0.61
O=C(NC(=S)Nc1ccc(Oc2ccccc2)cc1)c1ccc(Cl)cc1
→ 4.1, -2.56

Screening results (PubChem BioAssay)

An excerpt. The share of hits here may be higher or lower than overall.
